Screens (PubChem BioAssay)
STAT3 binder – binders of human STAT3; hit rate 0.2% among 17,000; calls only; Small molecule microarray, His-STAT3 binding, anti-His fluorescence; P40763;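 active = compounds whose four printed spots each show fluorescence over background unusually high for their array block, chance value under 7%; compounds were printed on slides so no solution concentration is given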;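 also: about 2 pmol printed per array spot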
Target sequence (P40763 whole entry, looked up): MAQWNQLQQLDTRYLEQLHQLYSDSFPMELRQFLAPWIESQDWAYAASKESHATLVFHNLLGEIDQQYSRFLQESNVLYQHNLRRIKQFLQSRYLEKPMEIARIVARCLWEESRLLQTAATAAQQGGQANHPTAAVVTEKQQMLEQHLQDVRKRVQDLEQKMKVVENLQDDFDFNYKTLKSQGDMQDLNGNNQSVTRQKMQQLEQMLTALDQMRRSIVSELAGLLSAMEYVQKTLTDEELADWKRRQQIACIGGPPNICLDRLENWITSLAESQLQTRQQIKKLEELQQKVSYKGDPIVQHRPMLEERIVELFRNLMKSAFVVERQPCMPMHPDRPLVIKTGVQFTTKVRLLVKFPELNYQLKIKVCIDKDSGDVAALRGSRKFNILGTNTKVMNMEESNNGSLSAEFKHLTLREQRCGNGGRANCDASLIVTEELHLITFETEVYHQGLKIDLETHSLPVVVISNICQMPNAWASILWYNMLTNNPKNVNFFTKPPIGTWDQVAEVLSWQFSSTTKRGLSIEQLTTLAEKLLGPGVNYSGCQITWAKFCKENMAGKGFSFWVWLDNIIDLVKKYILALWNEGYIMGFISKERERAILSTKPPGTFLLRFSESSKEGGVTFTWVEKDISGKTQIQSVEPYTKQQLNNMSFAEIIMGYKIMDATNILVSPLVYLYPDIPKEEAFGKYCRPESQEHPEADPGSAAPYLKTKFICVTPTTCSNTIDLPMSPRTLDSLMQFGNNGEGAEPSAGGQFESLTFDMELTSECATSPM
ID4 binder – binders of human ID4 protein; small molecule microarray, Flag-ID4 binding, fluorescence F/B; calls only; hit rate 1.2% among 31,000; AID 624137;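 active = spot signal over background at p below 0.07 in all four prints; compounds were printed on slides so no solution concentration is given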;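 also: a binder raises fluorescence above local background on the spot; about 2 pmol printed per array spot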
Target sequence (P47928 whole entry, looked up): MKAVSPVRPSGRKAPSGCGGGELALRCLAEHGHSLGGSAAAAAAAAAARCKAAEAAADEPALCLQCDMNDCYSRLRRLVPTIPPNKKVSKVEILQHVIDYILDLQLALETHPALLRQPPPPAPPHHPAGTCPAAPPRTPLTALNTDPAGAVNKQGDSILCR
Myc binder – c-Myc (human) binding. small molecule microarray, His-c-Myc binding, anti-His fluorescence. hit rate 1.5% among 17,000. P01106. calls only. AID 624141;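 active = spot fluorescence over background with P-value below 7% in all four replicate spots, showing protein binding; compounds were printed on slides so no solution concentration is given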;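 also: score is binary with 100 for all four spots passing and 0 otherwise; about 2 pmol printed per array spot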
p53 mut binder – binds human mutant p53 on microarray. hit rate 0.4% among 17,000. calls only. AID 624136. small molecule microarray binding, anti-GST fluorescence;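 active = compounds whose four printed spots each glow above background more than chance allows, each with a p-value under 7%; compounds were printed on slides so no solution concentration is given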;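 also: about 2 pmol printed per array spot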
Calls only; i = inactive; / = no result given; + = active, no number. Some of the compounds tested; rates above refer to the full screens.

no. | smiles | STAT3 binder | ID4 binder | Myc binder | p53 mut binder
1 | C[C@H](CO)N1C[C@H](C)[C@H](CN(C)S(=O)(=O)c2cccs2)Oc2c(NC(=O)C3CCCCC3)cccc2C1=O | i | / | i | i
2 | CNC[C@@H]1OCCCC[C@@H](C)Oc2ccc(NC(=O)Nc3ccccc3)cc2C(=O)N([C@H](C)CO)C[C@H]1C | i | i | i | i
3 | C[C@H](CO)N1C[C@H](C)[C@H](CN(C)C(=O)NC2CCCCC2)Oc2c(NS(=O)(=O)c3ccc(F)cc3)cccc2C1=O | i | i | i | i
4 | CNC[C@H]1OCCCC[C@@H](C)Oc2ccc(NS(=O)(=O)c3cccs3)cc2C(=O)N([C@@H](C)CO)C[C@H]1C | i | i | i | i
5 | C[C@@H]1CN([C@@H](C)CO)C(=O)c2cc(NC(=O)Nc3cccc4ccccc34)ccc2O[C@@H]1CN(C)Cc1ccc(-c2ccccc2)cc1 | i | / | i | i
6 | C[C@H]1CN([C@@H](C)CO)C(=O)c2cccc(NC(=O)NC3CCCCC3)c2O[C@H]1CN(C)S(=O)(=O)c1cn(C)cn1 | i | i | i | i
7 | COc1ccccc1CN(C)C[C@@H]1OCc2cnnn2CCCC(=O)N([C@H](C)CO)C[C@@H]1C | i | i | i | i
8 | CSc1ccccc1NC(=O)CN(c1cc(C)cc(C)c1)S(C)(=O)=O | i | i | i | i
9 | CCOc1ccccc1NC(=O)CSc1nnc(-c2ccco2)n1C | i | i | i | i
10 | CC(C)NC(=O)N(C)C[C@@H]1OCCCC[C@@H](C)Oc2ccc(NC(=O)c3ccccc3)cc2C(=O)N([C@@H](C)CO)C[C@@H]1C | i | i | i | i

Another view of 4 compounds above:
Every second line gives: STAT3 binder	ID4 binder	Myc binder	p53 mut binder
[3] C[C@H](CO)N1C[C@H](C)[C@H](CN(C)C(=O)NC2CCCCC2)Oc2c(NS(=O)(=O)c3ccc(F)cc3)cccc2C1=O
→ i	i	i	i
[8] CSc1ccccc1NC(=O)CN(c1cc(C)cc(C)c1)S(C)(=O)=O
→ i	i	i	i
[10] CC(C)NC(=O)N(C)C[C@@H]1OCCCC[C@@H](C)Oc2ccc(NC(=O)c3ccccc3)cc2C(=O)N([C@@H](C)CO)C[C@@H]1C
→ i	i	i	i
[1] C[C@H](CO)N1C[C@H](C)[C@H](CN(C)S(=O)(=O)c2cccs2)Oc2c(NC(=O)C3CCCCC3)cccc2C1=O
→ i	/	i	i

(further entries)
no. | smiles | STAT3 binder | ID4 binder | Myc binder | p53 mut binder
11 | Cc1cc(SCC(=O)Nc2sc3c(c2C#N)CCCC3)nc2ccccc12 | i | i | i | i
12 | C=CCN1C(=O)[C@]2(O[C@H](CCO)[C@@H]([Si](C)(C)c3ccc(OC)cc3)[C@@H]2C)c2cc(I)ccc21 | i | i | i | i
13 | COc1ccc(NC(=O)N(C)C[C@@H]2Oc3ccc(NS(=O)(=O)c4ccccc4)cc3C(=O)N([C@H](C)CO)C[C@@H]2C)cc1 | i | i | i | i
14 | CC(C)NC(=O)N(C)C[C@H]1Oc2ccc(NC(=O)Nc3cccc4ccccc34)cc2CC(=O)N([C@@H](C)CO)C[C@H]1C | i | / | i | i
15 | C[C@H](CO)N1C[C@H](C)[C@@H](CN(C)CC2CC2)Oc2c(NC(=O)c3cnccn3)cccc2C1=O | i | i | i | i
16 | COc1ccccc1Nc1nc(N)nc(CN2CCCCCC2)n1 | i | i | i | i
17 | C[C@H](CO)N1C[C@H](C)[C@@H](CN(C)Cc2ccccc2)Oc2ccc(NS(=O)(=O)c3cccs3)cc2CC1=O | i | i | i | i
18 | COC(=O)C1=C/c2ccccc2C(C2CC2)N(Cc2ccc(OC)cc2)/C=C\1C(=O)OC (configuration not stated) | i | i | i | i
19 | C[C@H]1CN([C@@H](C)CO)C(=O)c2cccc(NC(=O)NC3CCCCC3)c2O[C@H]1CN(C)C | i | i | i | i
20 | C[C@@H]1CN([C@H](C)CO)C(=O)Cc2cc(NS(C)(=O)=O)ccc2O[C@@H]1CN(C)Cc1ccc2c(c1)OCO2 | i | / | i | i
21 | CC(=O)NC(Cc1c[nH]c2ccccc12)C(=O)O (configuration not stated) | i | i | i | i
22 | C[C@@H]1CN([C@H](C)CO)C(=O)CCCn2cc(nn2)CO[C@@H]1CN(C)C(=O)c1cc(-c2ccccc2)on1 | i | i | i | i
23 | C[C@@H]1CN([C@@H](C)CO)C(=O)c2cc(NC(=O)CCCN(C)C)ccc2O[C@@H]1CN(C)Cc1ccc(C(=O)O)cc1 | i | + | i | i
24 | COc1ccc(NC(=O)Nc2cccc3c2O[C@@H](CN(C)C)[C@@H](C)CN([C@@H](C)CO)C3=O)cc1 | i | i | i | i
25 | Cc1ccc(S(=O)(=O)c2nc(-c3ccccc3F)oc2NCC2CCCO2)cc1 (configuration not stated) | i | i | i | i
26 | CCc1cccc(C)c1NC(=O)CSc1nnc(-c2ccc(C)cc2)n1C | i | i | i | i
27 | Cc1noc(C)c1NC(=O)N(C)C[C@@H]1Oc2ccc(NC(=O)Cc3cn(C)c4ccccc34)cc2C(=O)N([C@@H](C)CO)C[C@H]1C | i | / | i | i
28 | CCOc1ccc(C)cc1S(=O)(=O)n1nnc2ccccc21 | i | i | + | i
29 | Cc1noc(C)c1S(=O)(=O)N(C)C[C@H]1OCc2cnnn2CCCC(=O)N([C@@H](C)CO)C[C@H]1C | i | i | i | i
30 | O=C(O)c1cccc(NC(=O)c2ccc(CN3C(=O)c4ccccc4C3=O)cc2)c1 | i | i | i | i
31 | COc1ccc(NC(=O)Nc2ccc3c(c2)C(=O)N([C@@H](C)CO)C[C@H](C)[C@H](CN(C)S(=O)(=O)c2ccc(C)cc2)OCCCC[C@H](C)O3)cc1 | i | / | i | i
32 | C[C@@H]1CCCCO[C@@H](CN(C)S(C)(=O)=O)[C@@H](C)CN([C@H](C)CO)C(=O)c2cc(NS(=O)(=O)c3ccccc3)ccc2O1 | i | i | i | i
33 | Cc1ccc2cccc(S(=O)(=O)N3CCC(C(=O)O)CC3)c2n1 | i | i | i | i
34 | Cc1noc(C)c1NC(=O)Nc1ccc2c(c1)CC(=O)N([C@H](C)CO)C[C@H](C)[C@@H](CN(C)C)O2 | i | i | i | i
35 | C[C@@H]1CCCCO[C@@H](CN(C)S(=O)(=O)c2cccs2)[C@H](C)CN([C@H](C)CO)C(=O)c2cc(NC(=O)Cc3ccccc3)ccc2O1 | i | i | i | i
36 | C[C@@H]1CCCCO[C@@H](CN(C)C(=O)C2CCCCC2)[C@H](C)CN([C@H](C)CO)C(=O)c2cc(N(C)C)ccc2O1 | i | i | i | i
37 | COc1c(O)c2c(=O)cc(OC)c3c4c(OC)cc(=O)c5c(O)c(OC)c(C[C@@H](C)OC(=O)c6ccccc6)c(c(c1C[C@@H](C)OC(=O)Oc1ccc(O)cc1)c23)c54 | i | / | i | i
38 | O=C1C(=O)N(CCCn2ccnc2)C(c2ccccc2)C1C(=O)c1ccco1 (configuration not stated) | i | i | i | i
39 | CC(=O)CCc1c(C)[nH]c2ccccc2c1=O | i | i | i | i
40 | C[C@@H]1CN([C@@H](C)CO)C(=O)c2cc(NC(=O)Nc3ccccc3)ccc2O[C@@H]1CN(C)Cc1ccncc1 | i | i | i | i
41 | COc1ccc([Si](C)(C)[C@H]2[C@H](CCO)O[C@@]3(C(=O)N(Cc4cccc(N5CCC5=O)c4)c4ccccc43)[C@@H]2C)cc1 | i | / | i | i
42 | Cc1ccc(S(=O)(=O)N2CCC[C@H]2Cn2cc(CN3C(=O)COC[C@H]3c3ccccc3)nn2)cc1 | i | / | i | +
43 | O=C(CSc1nnc(-c2ccc(Br)cc2)o1)Nc1cccc(C(=O)N2CCOCC2)c1 | i | i | i | i
44 | C=C1C(=O)O[C@@H]2C3=C(C)CC[C@]34O[C@@H](C[C@@H]4C)[C@H]12 | i | i | i | i
45 | C[C@H]1CN([C@@H](C)CO)C(=O)CCCn2nncc2CO[C@H]1CN(C)C(=O)Nc1ccc(N2CCN(C)CC2)cc1 | i | i | i | i
46 | CCOc1cc(C2N=C(Nc3nc4ccccc4o3)NC3=C2C(=O)CC(C)(C)C3)ccc1O (configuration not stated) | i | i | i | i
47 | C[C@H]1CN([C@@H](C)CO)C(=O)c2cccc(NC(=O)NC3CCCCC3)c2O[C@@H]1CN(C)S(=O)(=O)c1ccc(Cl)cc1 | i | i | i | i
48 | C[C@@H]1O[C@@H](O[C@H]2[C@H](Oc3cc(O)c4c(c3)O[C@H](c3ccc(O)c(O)c3)CC4=O)O[C@H](CO)[C@@H](O)[C@@H]2O)[C@H](O)[C@H](O)[C@H]1O | i | / | i | i
49 | C[C@@H]1CN([C@H](C)CO)C(=O)c2cc(NC(=O)CCCN(C)C)ccc2O[C@@H](C)CCCCO[C@H]1CN(C)Cc1ccccc1 | i | i | i | i
50 | C[C@@H]1CCCCO[C@H](CN(C)C(=O)c2ccccc2)[C@H](C)CN([C@@H](C)CO)C(=O)c2cc(NS(=O)(=O)c3cn(C)cn3)ccc2O1 | i | i | i | i

Along the list, from the results shown.
Entries 43 to 49 in ID4 binder: i, i, i, i, i, /, i
Entries 43 to 49 in Myc binder: i, i, i, i, i, i, i

Remaining list, next part
no. | smiles | STAT3 binder | ID4 binder | Myc binder | p53 mut binder
51 | C[C@H]1CCCCO[C@H](CN(C)C)[C@@H](C)CN([C@@H](C)CO)C(=O)c2cc(NC(=O)c3ccccc3)ccc2O1 | i | i | i | i
52 | C[C@@H]1CN([C@@H](C)CO)C(=O)c2cc(NS(=O)(=O)c3cccs3)ccc2O[C@@H]1CN(C)C(=O)NC1CCCCC1 | i | i | i | i
53 | CNC[C@H]1Oc2ccc(NC(=O)Nc3ccc4c(c3)OCO4)cc2CC(=O)N([C@@H](C)CO)C[C@H]1C | i | i | i | i
54 | C[C@@H]1CN([C@H](C)CO)C(=O)c2cccc(NS(C)(=O)=O)c2O[C@@H]1CN(C)Cc1ccc(Cl)c(Cl)c1 | i | i | i | i
55 | COc1ccccc1N1CCN(CCCCNC(=O)c2ccc3ccccc3c2)CC1 | i | i | i | i
56 | C[C@H]1CN([C@@H](C)CO)C(=O)CCCn2cc(nn2)CO[C@H]1CN(C)Cc1ccncc1 | i | i | i | i
57 | COc1ccc(NC(=O)Nc2ccc3c(c2)C(=O)N([C@@H](C)CO)C[C@H](C)[C@H](CN(C)S(=O)(=O)c2cccs2)O3)cc1 | i | i | i | i
58 | CS(=O)(=O)N1CCN(CC(O)Cn2c3ccc(Cl)cc3c3cc(Cl)ccc32)CC1 (configuration not stated) | i | i | i | i
59 | O=C(CSc1nc2sc3c(c2c(=O)n1-c1ccccc1)CCCC3)Nc1ccccc1 | i | i | i | i
60 | C[C@H]1CCCCO[C@@H](CN(C)C(=O)Cc2ccccc2)[C@@H](C)CN([C@@H](C)CO)C(=O)c2cc(N(C)C)ccc2O1 | i | i | i | i
61 | CC(C)NC(=O)Nc1cccc2c1O[C@@H](CN(C)C)[C@@H](C)CN([C@H](C)CO)C2=O | i | i | i | i
62 | COc1ccc(NC(=O)Nc2cccc3c2O[C@@H](CN(C)C(=O)Nc2ccccc2)[C@H](C)CN([C@H](C)CO)C3=O)cc1 | i | i | i | i
63 | CNC[C@@H]1Oc2ncc(C#CCN(C)C)cc2C(=O)N([C@H](C)CO)C[C@@H]1C | i | i | i | i
64 | COc1cccc(NC(=O)/C=C/c2ccc(Cl)cc2)c1 | i | i | i | i
65 | C[C@@H]1CN([C@@H](C)CO)C(=O)Cc2cc(NS(C)(=O)=O)ccc2O[C@@H]1CN(C)S(=O)(=O)c1cccs1 | i | i | i | i
66 | O=C(NCc1cccnc1)c1cccc(NC(=O)c2ccco2)c1 | i | + | i | i
67 | C[C@@H]1CCCCO[C@H](CN(C)Cc2ccncc2)[C@H](C)CN([C@@H](C)CO)C(=O)c2cc(NS(C)(=O)=O)ccc2O1 | i | i | i | i
68 | C[C@H](CO)N1C[C@H](C)[C@H](CN(C)C)Oc2ccc(NC(=O)Nc3ccc4c(c3)OCO4)cc2C1=O | i | i | i | i
69 | CC(C)NCC(O)COc1ccccc1-n1cccc1 (configuration not stated) | i | i | i | i
70 | Cn1c(SCC(=O)Nc2cccc(C(F)(F)F)c2)nnc1-c1cc2cc(Cl)ccc2o1 | i | i | i | i
71 | C[C@H]1CN([C@@H](C)CO)C(=O)c2cc(NS(=O)(=O)c3ccc(F)cc3)ccc2O[C@@H]1CN(C)C(=O)Nc1ccccc1 | i | / | i | i
72 | COc1ccc(S(=O)(=O)Nc2ccc3c(c2)CC(=O)N([C@H](C)CO)C[C@@H](C)[C@H](CN(C)C)O3)cc1 | i | i | i | i
73 | C[C@@H]1CCCCO[C@H](CN(C)C(=O)CCCN(C)C)[C@H](C)CN([C@@H](C)CO)C(=O)c2cc(NC(=O)Cc3ccccc3)ccc2O1 | i | i | i | i
74 | C[C@H](CO)N1C[C@H](C)[C@@H](CN(C)Cc2ccc(Cl)c(Cl)c2)Oc2ccc(NC(=O)Nc3ccc4c(c3)OCO4)cc2C1=O | i | i | i | i
75 | C=C(C(=O)O)[C@@H]1CC[C@@]2(C)CCC=C(C)[C@@H]2C1 | i | / | i | i
76 | CCOc1ccc(NC(=O)C(C)Sc2ncnc3sc(-c4ccccc4)cc23)cc1 (configuration not stated) | i | i | + | i
77 | C[C@H](CO)N1C[C@H](C)[C@@H](CN(C)S(=O)(=O)c2ccc(F)cc2)OCCCC[C@H](C)Oc2ccc(NC(=O)Nc3ccc(C(F)(F)F)cc3)cc2C1=O | i | / | i | i
78 | CNC[C@@H]1Oc2c(NC(=O)c3ccncc3)cccc2C(=O)N([C@@H](C)CO)C[C@H]1C | i | i | i | i
